Assay outcomes: PubChem BioAssay, Johns Hopkins Ion Channel Center
KCNQ2 inh: KCNQ2 potassium channel inhibitors, primary screen, cell-based, CHO-K1, FluxOR thallium flux, B-score (AID 2156); 310,000 compounds, 1.1% hits; O88943; 20 min; hits give low values; only compounds with negative scores are shown here; some inactives read as strong as hits; B-score at 10 µM;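 active = fluorescence ratio B-score at most minus 3 library SDs, with starting brightness B-score within 2 library SDs, cut at about -5.5 in these data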
Target sequence (O88943 whole entry, looked up): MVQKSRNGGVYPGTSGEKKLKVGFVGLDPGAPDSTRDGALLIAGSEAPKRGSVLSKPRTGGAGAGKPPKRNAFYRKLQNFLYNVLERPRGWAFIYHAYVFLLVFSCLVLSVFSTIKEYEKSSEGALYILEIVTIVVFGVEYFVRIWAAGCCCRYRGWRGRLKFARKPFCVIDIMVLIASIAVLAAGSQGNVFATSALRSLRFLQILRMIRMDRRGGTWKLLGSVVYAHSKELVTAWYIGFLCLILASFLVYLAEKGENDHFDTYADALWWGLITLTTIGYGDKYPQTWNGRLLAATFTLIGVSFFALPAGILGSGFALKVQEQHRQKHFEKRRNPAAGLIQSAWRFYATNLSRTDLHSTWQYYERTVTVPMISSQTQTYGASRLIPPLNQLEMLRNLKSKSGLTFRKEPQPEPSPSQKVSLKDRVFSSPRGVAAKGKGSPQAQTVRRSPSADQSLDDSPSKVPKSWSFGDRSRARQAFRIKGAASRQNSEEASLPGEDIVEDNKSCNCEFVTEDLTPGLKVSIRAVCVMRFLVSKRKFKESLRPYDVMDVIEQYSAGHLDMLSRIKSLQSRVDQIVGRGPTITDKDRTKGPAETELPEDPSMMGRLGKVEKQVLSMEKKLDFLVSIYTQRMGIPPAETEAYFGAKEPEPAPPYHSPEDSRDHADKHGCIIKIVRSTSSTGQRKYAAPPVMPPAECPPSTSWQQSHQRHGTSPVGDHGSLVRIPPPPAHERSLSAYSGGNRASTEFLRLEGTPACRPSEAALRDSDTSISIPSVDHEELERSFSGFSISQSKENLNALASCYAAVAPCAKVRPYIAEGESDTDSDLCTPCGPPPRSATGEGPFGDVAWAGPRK
KCNQ2 inh baseline: recorded beside KCNQ2 inh, whose call it bears; B-score; measured here: initial fluorescence intensity artifact check;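 brightness before thallium and not channel activity; 0 = typical well and far values either way flag optical interference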
* = called active by the depositor; i = inactive. An excerpt, so the mix of outcomes need not match the whole.

SMILES | KCNQ2 inh | KCNQ2 inh baseline
O=C(c1ccccc1)c1ccc(OCC(O)CN2CCOCC2)cc1 (configuration not stated) | i | -0.02
COc1ccc(OC)c2[nH]c(=O)c(CCNS(=O)(=O)c3ccc(C)cc3)cc12 | i | 1.17
COCCn1c(SC2CCOC2=O)nc2ccccc2c1=O (configuration not stated) | i | -0.76
CCOC(=O)N1CCC(N2Cc3cccc(C(=O)N4CCN(c5cccc(C)c5C)CC4)c3C2=O)CC1 | i | 0.82
CCOC(=O)c1cnn(Cc2cccc(Cl)c2)c1C | i | -1.12
COc1ccc(N(CC(=O)N2CCN(Cc3ccccc3)CC2)S(C)(=O)=O)cc1 | i | -0.01
Cc1onc(-c2c(Cl)cccc2Cl)c1CO/N=C(\C#N)c1c(Cl)cccc1Cl | -5.55* | -0.34*
Cc1ccc(C2N=C(N)Nc3nc4ccccc4n32)cc1 (configuration not stated) | i | -0.01
CCC1(c2ccc(F)cc2)NC(=O)N(CC(=O)c2ccc[nH]2)C1=O (configuration not stated) | i | -0.22
Cc1cc(S(=O)(=O)Nc2ccc(C(=O)NCc3cccnc3)cc2)ccc1F | i | 1.59
O=C(O)/C=C/C(=O)NC1CCC(CC2CCC(NC(=O)/C=C/C(=O)O)CC2)CC1 (configuration not stated) | i | -0.11
Cc1ccc(C)c(N2CCN(C(=O)c3cc(S(=O)(=O)N4CCOCC4)cn3C)CC2)c1 | i | 0.45
CC(=O)c1cccc(NC(=O)c2cc(-n3cnnc3)ccc2Cl)c1 | i | 0.65
CCC1CCCCN1C(=O)CSc1nc(N)c(NC(=O)c2ccc(OC)c(OC)c2)c(=O)[nH]1 (configuration not stated) | i | 2.86
COc1cc(C(=O)O/N=C2\C=CC(=O)C(C)=C2)cc(OC)c1OC | i | -0.13
C(#CCN1CCOCC1)COCCOC(c1ccccc1)c1ccccc1 | i | -0.33
Clc1ccccc1OCc1nnc(-c2ccccc2)o1 | i | 1.93
O=C(N/N=C/c1ccc(OC(=O)c2ccc([N+](=O)[O-])cc2)cc1)c1cccnc1 | i | 1.92
COc1cccc(/C=C2\SC(=O)N(CCC(=O)NNC(=O)c3cccc(Cl)c3)C2=O)c1 | i | -0.95
COc1ccc(C(=O)NCC(=O)N/N=C/c2ccc(C)o2)cc1OC | i | 2.54
Cc1cccc(NC(=O)c2ccccc2OCC(=O)c2ccc(F)cc2)c1 | i | 1.28
CCN(CC)S(=O)(=O)c1ccc2[nH]c(=O)cc(C(=O)Nc3ccc(C)c(S(=O)(=O)N(CC)CC)c3)c2c1 | i | -0.41
O=C(O)c1ccc(-c2ccco2)n1Cc1ccccc1 | i | 0.62
COc1ccc(C(CNC(=O)COc2ccccc2OC)N(C)C)cc1OC (configuration not stated) | i | 1.79
CCCCCCCCNC1=CC(=O)CC(C)(C)C1 | i | -0.18

Further results
SMILES | KCNQ2 inh | KCNQ2 inh baseline
O=C(CC1CCCC1)NCCS(=O)(=O)N1CCN(c2ccc(F)cc2)CC1 | i | -1.56
O=S(=O)(NCC1CC1)c1ccc(F)c(Cl)c1 | i | 1.76
Nc1ccc(C(=O)O)c(O)c1 | i | 0.46
C=CCNC(=S)N1CCN(c2ccc([N+](=O)[O-])cc2)CC1 | i | -0.51
Nc1c(C=C2C=CC(=O)C=C2)c(=O)nc2sc(CC(=O)N3CCCC3)nn12 | i | -0.2
COc1ccc([N+](=O)[O-])cc1N/C(=N/S(=O)(=O)c1ccccc1)c1ccccc1 | i | 0.06
COc1cccc2c3c(c(=O)[nH]c12)CCC(C)(C)O3 | i | -0.02
O=S(=O)(NCCC1CC1(Cl)Cl)c1ccc(Cl)cc1 (configuration not stated) | i | 0.69
CC(=O)c1ccc(N2CCN(C(=O)/C=C/c3ccc4ccccc4n3)CC2)cc1 | i | 0.68
CCCn1c(C(O)c2cccc(OC)c2)nc2ccccc21 (configuration not stated) | i | -2.06
COc1cc(CCC(=O)OCC(=O)Nc2ccc(F)cc2F)cc(OC)c1OC | i | -0.05
COCC(CN1CCN(C2=NS(=O)(=O)c3ccccc32)CC1)OC(=O)c1ccc(OC)cc1 (configuration not stated) | i | 0.36
O=C(CC1(O)C(=O)Nc2ccccc21)c1ccc(-n2cnnn2)cc1 (configuration not stated) | i | 0.78
O=C1c2ccccc2C(Nc2ccc3c(c2)OCO3)N1Cc1ccc2c(c1)OCO2 (configuration not stated) | i | 3.76
CC(=O)c1c(C)[nH]c(C(=O)OCC(=O)Nc2cccc(S(=O)(=O)N3CCCC3)c2)c1C | i | 1.2
CCOC(=O)c1c(-c2ccccc2)csc1NC(=O)C1CCCO1 (configuration not stated) | i | 1.07
CCOCCCNC(=O)c1ccc2c(c1)N=C(CC)c1cc(Br)ccc1S2 | i | -0.11
O=C(O)C1CCN(C(=O)COc2ccc3c(c2)oc(=O)c2ccccc23)CC1 | i | 1.21
Cc1oc(-c2cc(Cl)cc(Cl)c2)cc1C(=O)NCCc1ccccc1 | i | 0.41
Cc1ccc(C(=O)N(CN2CCCC2=O)c2ccccc2)cc1 | i | -1.01
CCN(CC(=O)Nc1ccc(OC(F)F)cc1)C1CCCCC1 | i | 1.25
Cc1ccc2nc(-c3ccccc3)c(CN3CCN(c4ccccc4F)CC3)n2c1 | i | 0.94
COC(=O)[C@H]1C[C@@H]1[C@H](NC(=O)OCc1ccccc1)c1ccccc1 | i | -3.31
CC(=O)/C=C\c1ccccc1OC(=O)c1cc2ccccc2oc1=O | i | -0.02
CC12CCC(C(=O)N(CC(O)CN3CCCCC3)C1=O)C2(C)C (configuration not stated) | i | 2.48

The results go on.
SMILES | KCNQ2 inh | KCNQ2 inh baseline
CC1CCCCC1NS(=O)(=O)CCNC(=O)c1ccccc1 (configuration not stated) | i | 0.76
O=C(CCCn1c(=S)[nH]c2cc3c(cc2c1=O)OCO3)N1CCN(c2ccc(F)cc2)CC1 | i | -0.31
CCn1nc(C)cc1C(=O)Sc1cccc(Cl)c1 | i | -1.15
COC(=O)[C@@H]1C[C@H]2CC[C@H](O)C[C@H]2N1Cc1ccc(Cl)cc1 | i | 0.25
CCN(CC)c1ccc(/C=N/N2CCN(Cc3ccc(C)cc3C)CC2)c(O)c1 | i | -0.12
C[N+](C)(C)C[C@H](O)CC(=O)[O-] | i | 2.24
CN(C)CCNc1nc2sc3c(c2c(=O)n1CCc1ccccc1)CCCCC3 | i | -0.52
CN(C)c1ccc(/C=C(\NC(=O)c2ccccc2)C(=O)NCCN2CCOCC2)cc1 | i | -0.12
COc1ccc2ccc(=O)oc2c1CC(O)C(C)(C)O (configuration not stated) | i | 0.37
Cc1ccc(S(=O)(=O)N2CCN(C(=O)C3Cc4ccccc4CN3C(=O)c3ccco3)CC2)cc1 (configuration not stated) | i | -0.68
N#Cc1ccc(S(=O)(=O)NCC(=O)OCC(=O)N2CCCC2=O)cc1 | i | 2.24
CCN(CC)c1ncnc2sc(C(=O)N3CCN(c4ccccc4)CC3)c(C)c12 | i | 1.81
Cc1cc(F)ccc1NC(=O)c1cc(S(=O)(=O)N2CCOCC2)cn1C | i | -2
CC(=O)c1ccc(OCC(=O)NCc2ccc(F)cc2)cc1 | i | 1.79
COc1cc(/C=C/c2ccc3c(Br)cc(Br)c(O)c3n2)ccc1O | i | 0.35
COc1ccc(-c2ccc(C)cc2)cc1[C@H]1[C@@H]2C=CCC[C@@]2(C)C(=O)N1Cc1ccccc1 | i | -0.26
Cc1ccc(S(=O)(=O)N2CCN(C(=O)c3ccccc3Cc3ccccc3)CC2)c(C)c1 | i | -1.06
Cc1ccc(Cn2nnc3c(=O)[nH]c(C4CCN(S(=O)(=O)c5cc(C)ccc5C)CC4)nc32)cc1 | i | 1.68
COc1ccc2[nH]c(C(=O)N/N=C/c3ccc(O)cc3O)cc2c1 | i | -0.01
Cc1c(C(=O)NC2CCCc3ccccc32)oc2ccccc12 (configuration not stated) | i | -2.68
CC(C)C(=O)Nc1ccc(Cl)cc1-c1nc2ccccc2[nH]c1=O | i | -1.98
Nc1nc(-c2ccc(-n3nncc3-c3ccco3)cc2)cs1 | i | -0.02
C=CCc1ccc(OCC(O)CN2CCC(Cc3ccccc3)CC2)c(OC)c1 (configuration not stated) | i | 0.94
CN1CCN(CC#CCC2(O)c3ccccc3-c3ccccc32)CC1 | i | 1.26
Nc1nonc1-c1nc2ccccc2n1Cc1ccccc1 | i | -0.32

(list continues)
SMILES | KCNQ2 inh | KCNQ2 inh baseline
Cc1ccc(NC(=O)C2CCN(S(=O)(=O)c3ccc4[nH]c(=O)oc4c3)CC2)cc1F | i | -0.89
O=Cc1cn(-c2ccccc2)nc1-c1ccncc1 | i | -1.53
CC1=CC(=C(C#N)C#N)C=C(C)N1CCN1CCN(C(=O)Nc2cccc(Cl)c2)CC1 | i | -0.29
COc1ccccc1C(=O)NCc1ccccc1 | i | 1.5
Cc1ccccc1OCc1nnc(SCC(=O)Nc2c(C)n(C)n(-c3ccccc3)c2=O)n1-c1ccccc1 | i | 0.22
CCN(CC)c1nc2ccccc2nc1-n1nc(C)cc1C | i | -0.06
NC(=S)c1cnn2c(-c3cccc(C(F)(F)F)c3)ccnc12 | i | -1.04
CCN(CC)c1ccc(/C=N/N2C(C)CCCC2C)c(O)c1 (configuration not stated) | i | -0.44
C/C(=N\N1C(=O)c2ccccc2NC1c1ccco1)c1ccccc1O (configuration not stated) | i | 0.12
CCOC(=O)Cn1c(=O)oc2cc(S(=O)(=O)NC(C)(C)CC)ccc21 | i | -1.13
Cn1c(SCc2ccccc2F)nnc1-c1ccccn1 | i | -1.31
Cc1cc(C)cc(NC(=S)/C(=C(\[O-])c2ccc(Cl)cc2Cl)[n+]2ccc(C(C)(C)C)cc2)c1 | i | 1.04
COCCNC(=O)c1ccc(C(=O)NCCOC)s1 | i | 0.49
CCC(C(=O)NCc1ccco1)N(C(=O)CNS(=O)(=O)c1ccccc1)c1ccc(OC)cc1 (configuration not stated) | -5.75* | -0.07*
COc1ccc(CCNC(=S)NC(=O)c2ccccc2)cc1OC | i | 0.56
O=C(COc1ccccc1)NN1C(=O)CSC1=S | i | 0.49
CCOC(=O)c1c(C)c(C(=O)N2CCN(c3cccc(Cl)c3)CC2)c(C)n1C | i | -0.28
O=C(Cn1ccc(C(F)(F)F)n1)N=Nc1c(O)[nH]c2ccccc12 | i | -0.02
CCN(CC)CCOC(=O)c1cccc(Br)c1 | i | 1.37
COc1ccc(OCCN2C(=O)NC3(CCc4ccccc4C3)C2=O)cc1 (configuration not stated) | i | 0.72
CCN1CCCC1CNS(=O)(=O)c1ccc(Br)cc1 (configuration not stated) | i | -0.03
CC1(C)C2CCC1(CS(=O)(=O)NC(CC(=O)O)c1cccc(Br)c1)C(=O)C2 (configuration not stated) | i | 3.63
CCN1C(=O)/C(=C\c2nc3ccccc3c(=O)n2CC)c2ccccc21 | i | -1.22
Cc1ccc(Oc2ncc(CN3CCOCC3)s2)cc1 | i | -0.72
C=CCn1c(Cc2cccs2)nnc1SCC(=O)Nc1cc(OC)cc(OC)c1 | i | 2.36

Next section:
SMILES | KCNQ2 inh | KCNQ2 inh baseline
COc1ccc(N2CCN(C(C)C(=O)Nc3nnc(C)s3)CC2)cc1 (configuration not stated) | i | 2.06
c1ccc(COc2ccc(OCCOCCn3cncn3)cc2)cc1 | i | -0.1
COc1ccccc1CNC(=O)[C@@H]1CCCN1C(=O)C1CCN(S(=O)(=O)c2ccc(C)cc2)CC1 | i | -0.38
COc1ccc(/C=N/NC(=O)c2ccncc2)cc1CSc1nc2ccccc2s1 | i | 1.74
CC(C)CCN1CCN(Cc2ccsc2)CC1CCO (configuration not stated) | i | -0.65
CC(C)c1ccc(N=C2NN=C(c3cccs3)CS2)cc1 | i | -2.06
O=C(c1cccc(Oc2ccccc2)c1)N1CCN(c2ccccn2)CC1 | i | -1.22
COc1ccccc1S(=O)(=O)Cc1ccc(C(=O)NCc2ccccc2)o1 | i | -0.24
CC(C)CC(c1nnnn1CC1CCCO1)N1CCN(c2cccc(Cl)c2)CC1 (configuration not stated) | i | -0.87
Cc1ccc([N+](=O)[O-])cc1NC(=S)NCCc1ccccc1 | i | -0.62
COc1ccc(NC(=O)Cn2c(=O)n(-c3ccc(OC)cc3OC)c(=O)c3c(C)c(C)sc32)cc1 | i | 0.92
O=C(OCc1ccc2c(c1)OCO2)c1ccc(S(=O)(=O)N2CCCCC2)cc1 | i | -0.2
